Assay outcomes: PubChem BioAssay, several laboratories
VCAM-1 rise = enhancers of VCAM-1 display on endothelial cells, cell-based, plate reader, pooled HUVEC, TNFa stimulus (AID 455); HUVEC TNFa-induced VCAM-1 immunofluorescence, plate reader; numbers were filed only for top-ranked candidate wells; augmentation, % at 5 µM; 0.2% of 10,000 active;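 active = a compound raising TNF-alpha-driven VCAM-1 surface staining, with its hit status upheld on visual or statistical review; inactive = the rest, including hits rejected on review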;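 also: 0% = TNFa with vehicle and 100% = strongest image-checked hit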
26S disassembly = blocks ATP-dependent breakdown of the yeast 26S proteasome; anti-FLAG beads, GFP-proteasome disassembly, flow cytometry; inhibition of disassembly, % (concentration not given with the values); 0.2% of 24,000 active;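 active = above 40%; inconclusive = likely self-fluorescent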;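 also: plate controls were ATP control with full disassembly for no effect and ATP-gamma-S intact proteasomes for full effect; higher percent means more bead fluorescence retained so stronger block of disassembly; stock transfer was 100 nL into about 10 µL; wells with too few beads may also be inconclusive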
* = called active by the depositor; i = inactive; ? = inconclusive; . = not tested or not shown. Only part of the results is shown, so the mix of outcomes need not match the whole.

VCAM-1 rise | 26S disassembly | SMILES
i | -1.1 | COCCCNC(=O)CSc1nc2ccc(N3CCOCC3)cc2c(=O)n1CCc1ccccc1
. | 1.0 | O=S(=O)(Nc1ccc2c(c1)OCCO2)c1cccc2nsnc12
i | 0.1 | CC(=O)c1ccccc1Oc1nc(CN2CCOCC2)nc2scc(-c3cccs3)c12
. | -1.6 | Fc1cccc2sc(N3CCCCC3)nc12
. | 0.8 | O=C(c1cc2ccccc2o1)N1CCN=C1SCc1cccc(F)c1
. | -1.1 | COc1ccc(C2C3=C(CCCC3=O)Nc3nc(C(F)(F)F)nn32)cc1OC (configuration not stated)
. | 0.2 | NC(=O)CSc1nc2c(sc3ccccc32)c(=O)n1CCCN1CCOCC1
i | 0.7 | O=C(NC1CCCC1)c1cc(-c2cccs2)on1
i | -2.5 | CC(O)CN(Cc1cccc(Cl)c1)CC(C)O (configuration not stated)
. | -0.2 | COc1ccc(C2C(C(=O)N3CCCC3)c3cc(OC)c(OC)cc3C(=O)N2C)cc1OC (configuration not stated)
. | -0.3 | CCOC(=O)c1sc2nc(C)n(CC(=O)NCC3CCCO3)c(=O)c2c1C (configuration not stated)
. | -1.0 | O=C(CCn1c(=O)c2ccccc2n(Cc2cccnc2)c1=O)NCc1ccc2c(c1)OCO2
i | 1.1 | Cc1ccc(S(=O)(=O)N2CCOCC2)cc1C(=O)OCC(=O)N1CCc2ccccc2C1
70.3* | 0.6 | CCC(=O)N1CCc2cc(S(=O)(=O)CCC(=O)Nc3c(C)n(C)n(-c4ccccc4)c3=O)ccc21
i | 0.1 | CCC(=O)N1CCc2cc(S(=O)(=O)CCC(=O)Nc3nc(C)cs3)ccc21
. | 1.0 | O=C(NCCCN1CCCC1)c1ccc(CS(=O)(=O)c2ccc(Br)cc2)o1
. | -0.7 | CCCCC(=O)Nc1ccc2c3c(cccc13)C(=O)N2CC
. | -0.2 | COc1ccc2nc(NC(=O)C3CCN(S(=O)(=O)c4cccc5nsnc45)CC3)sc2c1
i | 0.5 | N#CC1=C(N)S[C@H](C(=O)C23CC4CC(CC(C4)C2)C3)[C@H]1c1ccncc1
. | 1.4 | O=C(N1CCOCC1)N1CCN(c2ccccc2F)CC1
i | 1.7 | CC(O)CN1C(=O)C(CC(=O)Nc2ccc(Cl)cc2)SC1=Nc1ccccc1 (configuration not stated)
. | ? | O=C(CCn1cccc1)Nc1ccccc1F
i | 0.6 | CSc1nnc(-c2nnc(SC)n2-c2ccccc2)n1-c1ccccc1
. | 8.1 | COC(=O)c1ccccc1NC(=O)CS(=O)(=O)Cc1nc(-c2ccc(C)cc2)oc1C

Continued (2 carried over from the part before).
VCAM-1 rise | 26S disassembly | SMILES
i | 0.6 | CSc1nnc(-c2nnc(SC)n2-c2ccccc2)n1-c1ccccc1
. | 8.1 | COC(=O)c1ccccc1NC(=O)CS(=O)(=O)Cc1nc(-c2ccc(C)cc2)oc1C
. | -1.3 | COc1ccc2nc3oc(C(=O)N4CCN(c5cccc(C(F)(F)F)c5)CC4)cc3cc2c1
. | 1.7 | Cc1cc(NC(=O)CSc2nnc(C)c(=O)[nH]2)no1
. | -3.4 | COc1cccc(CNC(=O)C2CCN(S(=O)(=O)c3c(C)nn(C)c3C)CC2)c1
. | 9.6 | O=C(C1CCCN(S(=O)(=O)c2cccc3nsnc23)C1)N1CCc2ccccc2C1 (configuration not stated)
i | -1.4 | COCCN1CN(S(=O)(=O)c2ccccc2)c2nc3ccccc3nc21
. | 0.1 | Cc1cccc(N(C)S(=O)(=O)c2cccc3nsnc23)c1
i | 0.0 | O=C(NC1CCCC1)C1CC1c1ccccc1 (configuration not stated)
. | -2.2 | O=C1Nc2ccccc2C(O)(C(=O)NCc2ccco2)N1c1ccccc1 (configuration not stated)
. | 1.1 | O=C(Cc1coc(-c2ccc(F)cc2)n1)N1CCOCC1
. | 0.1 | CCOC(=O)C1CCCN(C(=O)c2cc3c(=O)n(C)c4ccccc4c3n2C)C1 (configuration not stated)
. | -0.5 | CC(=O)c1c(C)[nH]c(C(=O)Nc2cc(C)ccc2C)c1C
i | -0.2 | Cc1c(OCC(F)(F)F)ccnc1CS(=O)c1nc2ccccc2[nH]1 (configuration not stated)
. | -1.4 | COc1cc(-c2nc(Cc3ccccc3Cl)no2)cc(OC)c1OC
. | 0.3 | O=C(c1cc2c(=O)oc3ccccc3c2s1)N1CCN(c2ncccn2)CC1
i | 1.1 | COc1ccc(CN(Cc2nc3ccccc3c(=O)[nH]2)C(=O)NC2CCCCC2)cc1
. | 0.7 | Cc1ccc(C(=O)NC2CCCCCC2)cc1N1CCCC1=O
. | 1.1 | CCn1c(=O)cc(SCC(=O)N2CCN(c3ccccc3OC)CC2)c2ccccc21
i | -1.3 | NS(=O)(=O)c1ccc(NC(=O)N[C@@H](Cc2ccccc2)C(=O)O)cc1
. | -0.1 | O=C(Cn1nc(-c2ccccc2)ccc1=O)NCc1ccc2c(c1)OCO2
i | 0.7 | COc1ccc2[nH]c(=O)c(CN(CC3CCCO3)C(=O)Nc3ccc(F)cc3)cc2c1 (configuration not stated)
i | -2.9 | CCN(CC)S(=O)(=O)c1ccc(NC2c3ccccc3C(=O)N2CCN2CCOCC2)cc1 (configuration not stated)
. | 3.1 | CCOc1ccc(-n2ccnc2SCC(=O)Nc2nnc(C)s2)cc1
. | -0.7 | CCOc1ccc(OCC)c(NC(=O)C(NS(=O)(=O)c2ccc3c(c2)oc(=O)n3C)C(C)C)c1 (configuration not stated)
. | -0.1 | CCOc1ccc(C2CC(c3ccc(F)cc3)n3ncnc3N2)cc1 (configuration not stated)
i | 1.1 | Cc1cc(C)c2c(n1)nn1c(N3CCN(c4ccccc4C)CC3)cc(C)nc21
i | 1.1 | Cc1nn(CC(O)Cn2c3c(c4ccccc42)CCN(C)C3=O)c(C)c1Br (configuration not stated)
i | 0.8 | O=C(CSc1nnc(Cc2ccccc2)n1-c1cccc(Cl)c1)N1CCOCC1
. | 0.1 | CCCCCOC(=O)c1[nH]c2c(c1C)C(=O)CC(c1ccco1)C2 (configuration not stated)
i | 0.4 | O=C(C1CCCN(S(=O)(=O)c2cccs2)C1)N1CCc2ccccc2C1 (configuration not stated)
. | -1.7 | CC(C)OCCCNS(=O)(=O)c1ccc2c(c1)oc(=O)n2C
i | -2.3 | Cc1ccc(-c2nn(C)c(=O)c3ccccc23)cc1S(=O)(=O)NCCN1CCOCC1
. | -0.6 | OCCNc1cc(-n2nc(-c3ccccc3)cc2-c2ccccc2)ncn1
i | -0.6 | CCNS(=O)(=O)c1ccc(S(=O)(=O)N(Cc2ccccn2)C2CCCCC2)cc1
. | -1.1 | CCn1ncc(C2=NOC(C(=O)Nc3c(C)nn(Cc4ccc(F)cc4)c3C)C2)c1C (configuration not stated)
i | 0.2 | CCCCN(C)Cc1c(O)ccc2c(-c3ccccc3)cc(=O)oc12
i | 0.0 | CCOC(=O)c1sc(NC(=O)c2c(C)nn(Cc3ccccc3)c2C)cc1C
i | -1.3 | COc1ccc(OC)c(Nc2cc(-c3ccccc3)nc(N)n2)c1
i | -0.6 | c1ccc(-c2nn3nnnc3c3ccccc23)cc1
. | ? | COc1ccccc1-c1cc(C(=O)NC(C)c2ccccc2)no1 (configuration not stated)
. | 1.2 | O=C(C1CCN(S(=O)(=O)c2cccc3nsnc23)CC1)N1CCc2ccccc21
i | 0.0 | CCN(CC)C(=O)c1ccc(CS(=O)(=O)c2ccc(OC)cc2)o1
i | 0.9 | COc1ccc(C(c2nnnn2C2CCCC2)N2CCC(C)CC2)c(OC)c1 (configuration not stated)
i | 0.7 | CCOc1ccc2nc(SCC#N)c(C#N)cc2c1
i | 4.3 | O=C(CCCCCN1C(=O)CCC1=O)NCc1ccccc1
. | -1.5 | O=C(Nn1nnnc1Nc1ccccc1)C12CC3CC(CC(C3)C1)C2
. | 0.4 | CCCCCn1c(CN2CCCCC2C)nc2c1c(=O)n(C)c(=O)n2C (configuration not stated)
i | 0.4 | CC(C)C1C2=C(CC(C)(C)CC2=O)ON1c1ccccc1 (configuration not stated)
. | -0.3 | Cc1cc2cc(CCNC(=O)C(C)C)c(=O)[nH]c2cc1C
i | -2.7 | O=C(NCC(c1cccnc1)N1CCOCC1)c1cccs1 (configuration not stated)
. | -0.6 | CC(C)CCNC(=O)CCn1nc(-c2ccccc2)ccc1=O
. | 0.5 | CSc1nc(C)c(Cl)c(C)c1C#N
. | 0.4 | O=C(NCCCn1ccnc1)c1cc(C2CC2)on1
i | -1.4 | Cc1ccc(NC(=O)C2CCCN2C(=O)Oc2ccccc2)cc1 (configuration not stated)
. | 0.5 | COc1ccc(NC(=O)CSc2nnc(Cn3c(=O)sc4ccccc43)n2C)c(OC)c1
. | -2.5 | CC(C)OCCCNC(=O)c1ccc(NC(=O)C2CCCO2)cc1 (configuration not stated)
i | -1.0 | COc1ccc(-c2noc(COc3ccc4ccccc4c3Br)n2)cc1OC
i | -0.3 | O=C(Cn1c(=O)[nH]n(-c2ccccc2)c1=O)N1CCCc2ccccc21
i | -0.3 | CCOC(=O)N1CCN(C(=O)CSc2nnc(-c3cccc(Cl)c3)o2)CC1
i | -0.2 | COC(=O)Cc1c(C)nc2nc(-c3ccccc3)[nH]n2c1=O
i | 0.8 | O=C(COC(=O)c1ccccc1O)Nc1ccc(OC(F)F)cc1

Later entries:
VCAM-1 rise | 26S disassembly | SMILES
. | -2.3 | COc1ccc(OC)c(CNC(=O)C2CCCN(c3nc4ccccc4o3)C2)c1 (configuration not stated)
i | -0.5 | Cc1ccc(-n2c(SCC3CCCCO3)nnc2-c2ccco2)cc1 (configuration not stated)
. | 0.6 | COc1cc(C2N(c3cccc(Cl)c3)C(=O)C3CCCN32)cc(OC)c1OC (configuration not stated)
. | -1.5 | Cc1ccc(Cl)cc1N1CCN(S(=O)(=O)c2c(C)[nH]c(=O)[nH]c2=O)CC1
i | -0.6 | O=C(CN(Cc1ccco1)C(=O)CNS(=O)(=O)c1ccc(Cl)cc1)NCc1ccc(F)cc1
. | -1.2 | O=C(O)CCCC(=O)Nc1cccc2cccnc12
. | -1.2 | Cc1ccccc1NC(=O)c1ocnc1C
. | -2.2 | Cc1cc(C)nc(NC(=O)CCCC(=O)O)c1
. | -0.2 | COc1cccc(C2c3c(oc4ccc(F)cc4c3=O)C(=O)N2CCCN2CCOCC2)c1 (configuration not stated)
i | 3.4 | CCCCc1ccc(NC(=O)COCC)cc1
. | -0.7 | CC(C)(C)NC(=O)Cn1nnc(-c2ccc(S(C)(=O)=O)cc2)n1
. | 1.5 | Cc1nn(C)c(C)c1Sc1ccc(Br)cc1

4 neighbouring records already listed, quoted:
VCAM-1 rise | 26S disassembly | SMILES
. | -2.3 | COc1ccc(OC)c(CNC(=O)C2CCCN(c3nc4ccccc4o3)C2)c1 (configuration not stated)
i | -0.5 | Cc1ccc(-n2c(SCC3CCCCO3)nnc2-c2ccco2)cc1 (configuration not stated)
. | 0.6 | COc1cc(C2N(c3cccc(Cl)c3)C(=O)C3CCCN32)cc(OC)c1OC (configuration not stated)
. | -1.5 | Cc1ccc(Cl)cc1N1CCN(S(=O)(=O)c2c(C)[nH]c(=O)[nH]c2=O)CC1

(next part)
VCAM-1 rise | 26S disassembly | SMILES
i | 1.5 | CCCCn1c(SCC(=O)Nc2cc(C)on2)nnc1-c1cccnc1
. | 0.6 | CCN1C(=O)c2cccc3c(S(=O)(=O)Nc4ccccn4)ccc1c23
. | 0.8 | Cn1nc(-c2ccc(Cl)cc2)c2cc(C(=O)NCCN3CCOCC3)sc21
. | -0.8 | COc1cc2c(=O)n(CC3CCCO3)c(=O)n(CC(=O)Nc3ccc(F)cc3F)c2cc1OC (configuration not stated)
. | 0.2 | COC(=O)CNC(=O)c1nn(-c2cccc(OC)c2)c(=O)c2ccccc12
. | -0.2 | CC1(C)CC(=O)c2cc(OCC(=O)NCc3cccnc3)ccc2O1
i | 1.2 | CCOc1cc(/C=N/n2cnnc2)cc(Br)c1O
i | 0.5 | O=C(Nc1cccnc1N1CCOCC1)c1ccco1
. | -1.4 | O=C(CSC1=Nc2ccccc2C2=NC(c3ccccc3)C(=O)N12)NCC1CCCO1 (configuration not stated)
i | 0.4 | CCn1c(SCC(=O)c2ccc(Cl)cc2)nnc1-c1ccoc1C
. | 3.0 | COc1ccc(CCNC(=O)C2CCN(Cc3nc(-c4ccc(Cl)cc4)oc3C)CC2)cc1OC
i | 2.0 | O=C(Nc1nc(-c2ccccc2)cs1)C1CCCCN1S(=O)(=O)c1ccccc1 (configuration not stated)

Exported field by field: part of the list above.
O=C(Cc1coc(-c2ccc(F)cc2)n1)N1CCOCC1
  VCAM-1 rise = . | 26S disassembly = 1.1

O=C(COC(=O)c1ccccc1O)Nc1ccc(OC(F)F)cc1
  VCAM-1 rise = i | 26S disassembly = 0.8

COc1ccc(-c2noc(COc3ccc4ccccc4c3Br)n2)cc1OC
  VCAM-1 rise = i | 26S disassembly = -1.0

CCOC(=O)c1sc(NC(=O)c2c(C)nn(Cc3ccccc3)c2C)cc1C
  VCAM-1 rise = i | 26S disassembly = 0.0

(cont.)
VCAM-1 rise | 26S disassembly | SMILES
i | 0.3 | Nc1ncnc2c1ncn2[C@@H]1O[C@H](CO)[C@@H](O)[C@H]1O
. | -0.6 | Cc1ccc2c(c1)N(CC(=O)O)C(=O)CO2
i | -2.1 | CCOC(=O)c1[nH]c2ccc(Br)cc2c1NC(=O)CNC
i | -0.4 | N#CCCN1CCN(S(=O)(=O)c2ccc(S(=O)(=O)NC3CCCCC3)cc2)CC1
. | 0.9 | O=c1c2cccnc2[nH]c(=S)n1CCC1=CCCCC1
i | 1.0 | CC1=C(C(N)=O)C(c2ccccn2)n2nc(-c3ccccc3Cl)nc2N1 (configuration not stated)
i | -5.9 | CCn1nnc(NC(=O)c2ccccc2Br)n1
